RN4220 kill = S. aureus RN4220 growth inhibition | OD600, 16 h | inhibition, % (no concentration beside the values) | 330,000 compounds, 0.33% hits;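 active = z-score of -3 or lower and OD600 up to 0.18 on both plates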;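 also: plate controls were untreated cells for no effect and reference antibiotic for full effect; stock transfer was 100 nL into about 80 µL; one replicate is shown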
Bead autofluor = counter-screen for toxin protease inhibitors: compound fluorescence | compound autofluorescence counterscreen, microsphere flow cytometry; hits give high values | fluorescence intensity (concentration not given with the values) | 360,000 compounds, 3.1% hits;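 active = at least 3 SD above the mean of all compounds, about 16000 in these data; inconclusive = too few beads counted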;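 also: 100 nL of 1 mM stock went into each well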
Mtb hypoxia inh = Mtb hypoxia fluorescent reporter inhibition; fluorescence inhibition, % (no concentration beside the values); AID 1159583; 300,000 compounds, 0.1% hits; M. tuberculosis hypoxia-regulated fluorescent reporter, fluorescence;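 active = 35 to 45% if threefold the growth effect, above 45% if 1.5-fold the growth effect; inactive = the rest, general growth blockers included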;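 also: wells of about 50 µL received 100 nL stock; 0% = vehicle wells and 100% = reference inhibitor wells; whole bacteria with a GFP reporter of the hypoxia response; strong numbers were not always called active; many hits fall short of the cut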
BJeLR viability = kills HRASV12-expressing BJeLR cells | BJeLR (HRASV12) viability, CellTiter-Glo ATP luminescence, 48 h; reference of the scale not given here | 300,000 compounds, 0.17% hits | inhibition, % (no concentration beside the values) | AID 1554;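 active = replicate mean above 50%; inconclusive = above 50% but judged a plate artefact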;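 also: 50 nL library stock added to about 25 µL; numbers are from one replicate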
PrP 5UTR inh = suppresses PrP 5' UTR mRNA reporter expression; cell-based PrP 5' UTR mRNA reporter, plate reader; inhibition, % (test concentration not listed); 340,000 compounds, 0.35% hits; AID 488862;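 active = every replicate at 50% or more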;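 also: 0 = median of the neutral control wells; tested in H4 reporter cells; numbers are from one replicate; inactives centre near -14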
Sa ugtP lethal = compounds lethal to S. aureus RN4220 ugtP deletion mutant; OD600 growth, 16 h; some inactives read as strong as hits; 330,000 compounds, 0.54% hits; AID 1259309; growth inhibition, % (test concentration not listed);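 active = z-score under -3 and OD600 up to 0.15 on both plates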;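 also: plate controls were untreated wells for no effect and antibiotic for full effect; wells of about 80 µL received 100 nL stock; the first replicate is given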
Mtb hypoxia inh growth = also measured in Mtb hypoxia inh; calls as there; growth inhibition, %; measured here: M. tuberculosis growth (absorbance);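 0% = vehicle and 100% = reference antibiotic; read after six days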
* hit, by the source's call; ? = inconclusive; nt = no result given.

SMILES	RN4220 kill	Bead autofluor	Mtb hypoxia inh	Mtb hypoxia inh growth	BJeLR viability	PrP 5UTR inh	Sa ugtP lethal
CC(=NNC(N)=S)C1(C)CC2(CC(C)(C)OC2=O)C(=O)O1 (stereo not drawn)	3.4	nt	-7	-1	nt	nt	2
Cc1ccc(-c2cc(C(F)F)n3ncc(C(=O)N4CCN(c5cccc(C)c5C)CC4)c3n2)cc1	-4.3	4061	nt	nt	-3	-1	-10
CC(C)Cn1c(N)c(C(=O)COC(=O)COc2cccc(C(F)(F)F)c2)c(=O)n(C)c1=O	1.4	5430	6	5	2	-17	-2
CCOc1cccc(CNCCO)c1OCc1ccc(Cl)cc1	4.4	2164	9	1	4	-11	7
COCCCNC(=O)c1cccc2c(=O)c(C)c(-c3ccccc3)oc12	0.9	2550	-7	0	2	-10	2
C#CCSc1nncn1C(=O)/C=C/c1ccccc1	3.2	nt	11	1	4	nt	3
CCC1CCCCN1CCCNC(=O)c1c(O)nc2ccccn2c1=O (stereo not drawn)	5.5	5037	12	6	3	-3	1
CC1CCc2nc3ccc(S(=O)(=O)N4CCC(C(=O)N5CCCCC5)CC4)cc3c(C(=O)O)c2C1 (stereo not drawn)	4.2	5134	8	8	-7	-22	8
COc1ccc(CN(C(=O)c2ccco2)C2CCS(=O)(=O)C2)cc1 (stereo not drawn)	1.5	6492	0	-5	3	-9	6
Cc1c(NC(=S)NC(=O)c2ccccc2Br)c(=O)n(-c2ccccc2)n1C	3.3	3356	16	8	6	-1	6
CCOCCNC(=O)c1ccccc1C(=O)NCCOCC	6.4	17947*	8	6	2	-28	1
CC1CN(CCN2CC(C)N(C=O)CC2C)C(C)CN1C=O (stereo not drawn)	3.4	2876	10	-3	nt	-5	6
Cc1ccc(SCC(CC(C)C)N2CCN(CCc3ccccc3)CCC2=O)cc1 (stereo not drawn)	5.5	nt	-2	0	nt	nt	2
COc1ccc(C(C)=O)cc1COC(=O)c1ccc2c(c1)OCCO2	4.5	8030	8	1	nt	-16	4
COc1cccc(-n2c([S-])c(C(=O)Nc3ccc(C(F)(F)F)cc3)[n+]3ccccc23)c1	-3.8	nt	9	-3	4	nt	-11
CC(C)c1onc(C(=O)Nc2sc3c(c2C#N)CCC3)c1[N+](=O)[O-]	22	2567	12	7	13	-23	1
CCCc1c(C)c2cccc(C)c2[nH]c1=O	3.2	2602	-1	0	-5	-11	-9
CCN1CCN(C(=O)CSc2ccc(C)cc2)CC1	2.6	3934	5	1	1	-25	8
CC(C)CC(NC(=O)c1[nH]cnc1C(=O)NC(C)C(=O)OC(C)(C)C)C(=O)OC(C)(C)C (stereo not drawn)	4.7	nt	8	3	nt	nt	7
COc1cccc(C=NNc2ccc(Cl)nn2)c1OC	4.2	nt	13	17	nt	nt	-9
CNc1nc(CCN2C(=O)c3ccccc3C2=O)cs1	6.3	?	3	6	-4	-28	9
Oc1ccc(C=NNC(=S)N2CCOCC2)cc1	3.5	nt	12	8	nt	nt	5
Cc1cc(=O)[nH]c(NN=CC=Cc2ccccc2)n1	-3.3	nt	nt	nt	nt	nt	-18
Cc1ccc(C2Nc3ccccc3-c3nc4ccccc4n32)o1 (stereo not drawn)	-2.7	10577	9	15	-2	-37	-4
Nc1cc2c([N+](=O)[O-])cccc2o1	-0.8	4579	nt	nt	-1	-19	-2
CCOC(=O)C1CCN(C(=O)CSc2ccccc2Cl)CC1	2.9	4658	10	-11	-5	-16	-3
O=C(COc1ccc2ccc(=O)oc2c1)NC(Cc1ccc(Cl)cc1)C(=O)O (stereo not drawn)	2.0	4947	nt	nt	-7	-16	9
c1ccc(CCn2c(C3CC3)nc3ccccc32)cc1	4.9	16345*	0	-1	-2	-15	6
Cc1cccc(S(=O)(=O)c2c(C)cc(C)[nH]c2=O)c1	3.2	3045	3	-8	6	-24	6
FC(F)Sc1ccc(NC(=S)NC(c2ccccc2)c2ccccc2)cc1	99*	4735	8	6	-4	-13	100*
Cc1cccc(C)c1NC(=O)CNC(=O)CCCN1C(=O)c2cccc3cccc(c23)C1=O	2.9	2824	10	3	nt	-12	16
CSCCC(=O)Nc1nc(-c2ccccn2)cs1	3.9	3269	-1	4	nt	-23	3
COc1ccc(C=NNC(=O)COc2cccc3ccccc23)c(C(=O)O)c1OC	-4.6	nt	-4	0	nt	nt	-3
NC(=O)c1ccc(SCC(=O)OCC(=O)N2CCCC2=O)c([N+](=O)[O-])c1	0.6	nt	8	2	-11	-19	12
COc1ccc(CNS(=O)(=O)NCc2ccc(OC)c(OC)c2)cc1	6.2	2595	-2	3	6	-24	-7
COc1ccc(Cn2c(-c3ccc(OC)c(O)c3)nc3ccccc32)cc1O	8.4	2048	3	-1	2	-9	-3
COCCCNC(=O)CSc1nc2cc(S(=O)(=O)N3CCCCC3)ccc2o1	5.3	4523	0	-2	-5	-25	19
Cc1c2ccccc2nc2c(F)c(NCCO)c(F)c(F)c12	2.6	1980	3	0	8	-10	-2
Cc1cc(NC(=O)CSc2n[nH]c(N)n2)no1	11	?	14	1	18	-29	-65
Cc1n[nH]c(=O)nc1NC1CCCCC1	6.5	2430	3	2	6	-75	3
Cc1ccccc1Nc1nc(N)nc(COC(=O)c2ccco2)n1	3.6	3440	0	11	nt	-43	2
COc1cccc(CNC(=O)CCNC(=O)C2CCN(S(=O)(=O)c3ccccc3)CC2)c1	2.3	4992	-2	0	7	-28	-2
CN(C)S(=O)(=O)c1ccc(S(=O)(=O)Nc2ccc3c(c2)oc2ccccc23)cc1	-4.5	4212	5	-1	6	-11	69
COc1cc2nc(N3CCN(C(=O)[C@@H]4CCCO4)CC3)nc(N)c2cc1OC	nt	6394	nt	nt	-10	-12	nt
Cc1ccc(C(=O)NC(=S)N(C)Cc2ccccc2)cc1	-0.8	4280	-3	14	-10	-17	7

Full records from above. Order of values: RN4220 kill | Bead autofluor | Mtb hypoxia inh | Mtb hypoxia inh growth | BJeLR viability | PrP 5UTR inh | Sa ugtP lethal
Cc1cc(NC(=O)CSc2n[nH]c(N)n2)no1 as listed: 11 | ? | 14 | 1 | 18 | -29 | -65
COc1ccc(CNS(=O)(=O)NCc2ccc(OC)c(OC)c2)cc1 as listed: 6.2 | 2595 | -2 | 3 | 6 | -24 | -7

(cont.)
SMILES	RN4220 kill	Bead autofluor	Mtb hypoxia inh	Mtb hypoxia inh growth	BJeLR viability	PrP 5UTR inh	Sa ugtP lethal
O=C(Cc1ccccc1)NNC(=O)c1cnccn1	5.3	2504	4	5	3	-2	0
COc1cc(C=NNC(=O)c2ccc3c(c2)OCO3)ccc1O	-2.3	nt	-5	5	nt	nt	-4
Cc1csc(NC(=O)CSc2[nH]c(=O)ncc2C)n1	4.8	nt	-2	-2	-3	-20	3
OCCCNC(=S)Nc1ccc(Br)cc1Cl	5.3	4384	4	5	-3	-21	-4
CC(=O)Nc1ccc(NC(=O)C2CC(=O)N(c3cccc(C)c3C)C2)cc1 (stereo not drawn)	0.5	2874	0	4	-1	-10	-5
CC(C)=CCN1CCN(Cc2cc3ccccc3[nH]2)CC1CCO (stereo not drawn)	4.5	4681	13	3	-10	-13	4
O=C(CN1CCN(c2ccccn2)CC1)Nc1ccc(F)cc1F	4.5	3647	5	18	2	-14	2
COc1cccc(S(=O)(=O)Nc2ccc(C(=O)NCc3ccco3)cc2)c1	2.1	11265	4	10	-5	-36	8
NC1=NC(c2ccccc2C(F)(F)F)N(c2ccc(F)c(Cl)c2)C(N)=N1 (stereo not drawn)	0.0	3686	-12	11	10	-18	-3
O=C1c2cccnc2C(=O)N1Cc1ccc(S(=O)(=O)NCc2ccco2)cc1	2.7	6157	2	-6	0	-18	7
CCc1c(C)nc2ncnn2c1NCCc1ccccc1	8.7	3773	5	-1	7	0	3
O=C(N/N=C1\CCCc2ccccc21)c1cccc(Br)c1	nt	4160	nt	nt	-3	-31	nt
COc1ccc(CC2c3cc(OC)c(OC)cc3CC[N+]2(C)CCC(=O)OCCCCCOC(=O)CC[N+]2(C)CCc3cc(OC)c(OC)cc3C2Cc2ccc(OC)c(OC)c2)cc1OC (stereo not drawn)	7.8	5374	5	10	nt	-17	3
O=C(Cc1ccccc1)NCCS(=O)(=O)N1CCN(c2ccccc2)CC1	2.2	7219	1	-4	6	-1	3
CCc1cccc(C)c1N(C(=O)Cn1c(COC)nc2ccccc21)C(C)COC (stereo not drawn)	7.1	3201	4	4	-2	-23	2

Sorted by formula weight (rising): part of the list above.
SMILES	RN4220 kill	Bead autofluor	Mtb hypoxia inh	Mtb hypoxia inh growth	BJeLR viability	PrP 5UTR inh	Sa ugtP lethal
CCc1c(C)nc2ncnn2c1NCCc1ccccc1	8.7	3773	5	-1	7	0	3
OCCCNC(=S)Nc1ccc(Br)cc1Cl	5.3	4384	4	5	-3	-21	-4
O=C(CN1CCN(c2ccccn2)CC1)Nc1ccc(F)cc1F	4.5	3647	5	18	2	-14	2
O=C(Cc1ccccc1)NCCS(=O)(=O)N1CCN(c2ccccc2)CC1	2.2	7219	1	-4	6	-1	3

A stretch from further up, as a working copy:
SMILES	RN4220 kill	Bead autofluor	Mtb hypoxia inh	Mtb hypoxia inh growth	BJeLR viability	PrP 5UTR inh	Sa ugtP lethal
CCc1c(C)nc2ncnn2c1NCCc1ccccc1	8.7	3773	5	-1	7	0	3
O=C(N/N=C1\CCCc2ccccc21)c1cccc(Br)c1	nt	4160	nt	nt	-3	-31	nt
COc1ccc(CC2c3cc(OC)c(OC)cc3CC[N+]2(C)CCC(=O)OCCCCCOC(=O)CC[N+]2(C)CCc3cc(OC)c(OC)cc3C2Cc2ccc(OC)c(OC)c2)cc1OC (stereo not drawn)	7.8	5374	5	10	nt	-17	3
O=C(Cc1ccccc1)NCCS(=O)(=O)N1CCN(c2ccccc2)CC1	2.2	7219	1	-4	6	-1	3
CCc1cccc(C)c1N(C(=O)Cn1c(COC)nc2ccccc21)C(C)COC (stereo not drawn)	7.1	3201	4	4	-2	-23	2

(further entries)
SMILES	RN4220 kill	Bead autofluor	Mtb hypoxia inh	Mtb hypoxia inh growth	BJeLR viability	PrP 5UTR inh	Sa ugtP lethal
O=C(CNC(=O)c1cccnc1)NN=Cc1cc(Br)c(O)c(Br)c1	17	nt	0	1	nt	nt	21
CC(=O)Oc1ccc(C2=NN(c3ccccc3)C(c3ccccc3)C2)cc1 (stereo not drawn)	-9.6	3817	17	4	-21	-14	50
Cc1ccc2c(c1)c1nnc(SCC(=O)N3CCN(c4ccc(F)cc4)CC3)nc1n2CC(=O)O	3.6	2525	11	6	-4	4	2
CN(CC(=O)Nc1ccc(F)cc1)C(=O)CSc1nc2ncc(Cl)cc2[nH]1	1.1	4282	-4	12	-13	11	-2
COc1ccccc1-n1cnnc1SCC(=O)Nc1ccccc1	4.0	4668	4	4	7	-34	7
O=C(Nc1ccc(N2C(=O)C3C4C=CC(C4)C3C2=O)cc1)Nc1nnc(C(F)(F)F)s1 (stereo not drawn)	3.1	5487	-1	7	8	-27	10
CC1CCCC(C)N1C(=O)COC(=O)c1ccc(Br)c(S(=O)(=O)N2CCOCC2)c1 (stereo not drawn)	0.1	3453	12	11	nt	-32	6
Cc1nn(-c2ccccc2)cc1C=NNS(=O)(=O)c1ccccc1	6.0	nt	5	2	nt	nt	-5
NCCCC[C@H](NC(=O)C1CCNCC1)c1nnc([C@@H](N)Cc2ccc(O)cc2)o1	nt	3500	nt	nt	-3	-28	nt
COc1cccc(C(=O)Cn2c(=N)n(C)c3ccccc32)c1	3.1	2927	-4	-10	9	0	-13
CCCCCc1nnc(NC(=O)Cc2cccs2)s1	3.3	8202	10	9	-5	-27	4
CC(=O)Oc1ccc2nc(CN3C(=O)c4ccc([N+](=O)[O-])cc4C3=O)oc(=O)c2c1	3.1	2677	9	-1	-1	-8	0
CCc1noc(C)c1C(=O)N1CCCC1	5.4	16196*	6	5	-14	-5	8
COc1ccc(-c2ccc(=O)n(Cc3c(F)cccc3Cl)n2)cc1	-0.2	2990	21	22	8	-21	2
CCc1sc(C(=O)Nc2ccc(OC)c(S(=O)(=O)N3CCOCC3)c2)cc1C	-3.2	3545	-4	1	nt	-5	-15
CCOC(=O)c1c(C)[nH]c(C)c1S(=O)(=O)NCCc1ccco1	-0.9	6011	19	8	-11	-4	0
